Assay outcomes deposited in PubChem BioAssay by several laboratories.
Arbovirus inh = antivirals against arbovirus infection | arbovirus infection cell-based antiviral screen | inhibition, % at 10 µM | hit rate 0.37% among 200,000 | AID 1251;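 active = inhibition from about 30%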;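 also: bluetongue infection of BSR cells; cell survival read as ATP light after 72 h; 0% = infected wells without compound and 100% = uninfected wells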
Mtb betalactam = beta-lactam sensitization of Mtb H37Rv | M. tuberculosis H37Rv growth with meropenem, percent inhibition; hits of this screen are not shown here | inhibition, % at 25 µM | hit rate 0.27% among 330,000 | AID 434955;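 active = about 74% or more and at least 40 points above the plate without the antibiotic, then above 30% in a dose series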;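 also: growth measured after seven days incubation then overnight dye step; 0% = bacteria only wells and 100% = bacteria with antibiotic; twin plates without the antibiotic show which effects depend on it; some results filed as inactive read as strong as hits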
RecA splice inh = blocks M. tuberculosis RecA intein splicing. hit rate 0.75% among 290,000. inhibition, %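 (about 9 µM by stock and volumes)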. cell-free RecA intein splicing, fluorescence; in the data active = inhibition above about 30%;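 also: 0% = vehicle wells and 100% = reference inhibitor control wells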
Target sequence (P9WHJ3 whole entry, looked up, canonical isoform): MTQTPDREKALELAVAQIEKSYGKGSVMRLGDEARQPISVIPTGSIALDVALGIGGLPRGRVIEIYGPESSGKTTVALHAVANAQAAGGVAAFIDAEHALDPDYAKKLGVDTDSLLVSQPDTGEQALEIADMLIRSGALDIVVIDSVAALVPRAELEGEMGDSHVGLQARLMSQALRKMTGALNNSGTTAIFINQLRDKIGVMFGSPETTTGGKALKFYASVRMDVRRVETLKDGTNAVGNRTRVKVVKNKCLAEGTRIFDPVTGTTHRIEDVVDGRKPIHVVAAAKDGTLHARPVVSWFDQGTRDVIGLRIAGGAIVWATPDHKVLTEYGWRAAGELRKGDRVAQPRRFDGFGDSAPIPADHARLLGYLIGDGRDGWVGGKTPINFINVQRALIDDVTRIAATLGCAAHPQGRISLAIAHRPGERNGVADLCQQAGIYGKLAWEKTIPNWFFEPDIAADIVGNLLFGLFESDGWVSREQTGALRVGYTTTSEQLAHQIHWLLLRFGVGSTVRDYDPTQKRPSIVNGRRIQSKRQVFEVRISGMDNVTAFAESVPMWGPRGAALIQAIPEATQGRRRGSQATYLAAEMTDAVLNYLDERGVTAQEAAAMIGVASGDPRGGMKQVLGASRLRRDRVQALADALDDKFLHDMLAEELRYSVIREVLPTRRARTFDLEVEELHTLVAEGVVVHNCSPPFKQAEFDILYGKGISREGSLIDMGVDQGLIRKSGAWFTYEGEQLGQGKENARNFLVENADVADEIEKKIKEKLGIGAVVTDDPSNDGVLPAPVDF
YopH inh = YopH (Yersinia) phosphatase inhibition | fluorescence Ex485/Em525 | inhibition, %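 (about 10 µM by stock and volumes)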 | hit rate 0.16% among 140,000;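 active = inhibition of 50% or more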;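 also: controls were vehicle for no effect and minimum signal wells for full effect; inactives centre near -20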
Mtb growth = M. tuberculosis H37Rv growth inhibitors, H37Rv strain (AID 1626); M. tuberculosis H37Rv growth inhibition; higher % means a stronger effect; inhibition, % at 10 µM, or IC50 in µM where a hit was titrated; hit rate 0.95% among 220,000;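 active = confirmed in a dose series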;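 also: bacteria incubated seven days before Alamar blue readout; 0% = bacteria only wells and 100% = bacteria with antibiotic wells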
Arbovirus inh repeat = second read-out of Arbovirus inh, no call of its own (marks repeat the call); inhibition, %; measured here: 10K subset replicate screen; many hits read low in the repeat;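 first of two repeat runs on a subset; 0% = infected and 100% = uninfected wells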
* = called active by the depositor; . = not tested or not shown. Some of the compounds tested; the hit share may differ from the screen's.

SMILES	Arbovirus inh	Mtb betalactam	RecA splice inh	YopH inh	Mtb growth	others
Cc1ccccc1SCc1noc(C(=O)NCC2CCCO2)c1C(=O)O (centres undefined)	12	-7	-2.4	9	-6%
CCC(C(=O)NCc1cccnc1)n1nc(C)n2c(cc3occc32)c1=O (centres undefined)	.	2	-1.6	.	.
O=C(Nc1ccc(Cl)cc1)Nc1cccc2nsnc12	.	22	-26	.	26%
O=C(NCc1ccccc1)N1CCN(c2ccccc2)CC1	.	-2	-1.2	.	.
COc1cccc(CNc2ccc3[nH]c(=O)[nH]c3c2)c1OCc1ccccc1	.	3	8.3	.	.
O=C(NCc1ccco1)C1CC(=O)N(c2ccc(O)cc2)C1 (centres undefined)	9	1	1.3	2	-6%
Cc1cc([N+](=O)[O-])nn1Cc1ccc(C(=O)N/N=C/c2ccc(O)cc2O)cc1	-31	8	2.1	-43	-2%
O=C(O)CCNc1nc(C(F)(F)F)nc2ccccc12	0	-14	0.3	.	-6%
O=C(CSc1nnc(-c2cccnc2)n1-c1ccccc1)Nc1ccccn1	-3	-8	.	-30	2%
O=C(c1cc([N+](=O)[O-])ccc1N1CCCC1)N1CCCCC1	-3	-10	-5.7	.	5%
CCC(C)c1ccc(O)c(NC(=O)c2ncn[nH]2)c1 (centres undefined)	-2	-2	3.9	-19	-2%
COCCn1c(SCC#N)nnc1-c1ccc2c(c1)OCO2	6	-2	-3.4	-43	-2%
COC(=O)[C@H](C)NC(=O)/C=C/c1ccc(OC)cc1	-7	6	0.0	-50	-7%
O=C1OCCN1/N=C/c1ccc([N+](=O)[O-])o1	3	37	2.2	-54	3%
Cc1cccc(C)c1OCC(O)Cn1nnc2ccccc21 (centres undefined)	2	-6	3.8	-9	1%
CCCN1CCN(S(=O)(=O)c2ccc3c(c2)CC(C)N3C(=O)C2CC2)CC1 (centres undefined)	.	-1	-0.9	.	.
Cn1c(=O)c2cc(S(=O)(=O)NCCC(=O)Nc3ccccc3F)ccc2n(C)c1=O	-2	-4	-2.7	-24	-15%
CC(C)CSc1nsc(N)n1	6	-7	0.0	-13	2%
COc1ccc(CN(C)CC(=O)NC2CCCc3ccccc32)cc1OC (centres undefined)	1	14	-0.8	.	1%
C/C(CC(=O)Nc1ccccn1)=N\NC(=O)C(=O)Nc1cccc(Cl)c1C	-8	1	16	-15	35%

Sorted by molecular weight (low to high): part of the list above
SMILES	Arbovirus inh	Mtb betalactam	RecA splice inh	YopH inh	Mtb growth	others
CC(C)CSc1nsc(N)n1	6	-7	0.0	-13	2%
O=C1OCCN1/N=C/c1ccc([N+](=O)[O-])o1	3	37	2.2	-54	3%
CCC(C)c1ccc(O)c(NC(=O)c2ncn[nH]2)c1 (centres undefined)	-2	-2	3.9	-19	-2%
O=C(O)CCNc1nc(C(F)(F)F)nc2ccccc12	0	-14	0.3	.	-6%
Cc1ccccc1SCc1noc(C(=O)NCC2CCCO2)c1C(=O)O (centres undefined)	12	-7	-2.4	9	-6%
CCCN1CCN(S(=O)(=O)c2ccc3c(c2)CC(C)N3C(=O)C2CC2)CC1 (centres undefined)	.	-1	-0.9	.	.
Cc1cc([N+](=O)[O-])nn1Cc1ccc(C(=O)N/N=C/c2ccc(O)cc2O)cc1	-31	8	2.1	-43	-2%

Carrying on:
SMILES	Arbovirus inh	Mtb betalactam	RecA splice inh	YopH inh	Mtb growth	others
COc1ccc(C(=S)NC2CCCCC2)cc1	-2	-5	-0.7	-40	-3%
CC1CCCCN1S(=O)(=O)c1ccc2c(c1)oc(=O)n2CC(=O)O (centres undefined)	0	-10	-0.8	-45	3%
Cc1cc(-n2cc(Br)c(=O)[nH]c2=O)nc(-c2ccccc2)n1	.	3	-7.4	.	1%
C=CCN1C(=O)/C(=C/c2ccc(O)c(OC)c2)S/C1=N/c1nccs1	-37	-4	10	-19	4%
COc1ccc(CC(=O)N/N=C(/C)CC(=O)N(C)c2ccccc2)cc1	.	-5	30*	.	.
CC(C)CC(=O)c1c[nH]c(C(=O)NCc2ccccc2)c1	.	6	-1.4	.	.
CN(C(=O)COC(=O)c1ccc([N+](=O)[O-])cc1N)c1ccccc1	-3	6	-4.2	.	6%
COc1cc(OC)cc(C(=O)Nc2cccc3cccnc23)c1	.	-3	1.1	.	.
Cc1cc2nc(-c3cccc(NC(=O)c4ccc(Br)o4)c3)oc2cc1C	7	1	-3.7	-25	1%
COC(=O)c1sc(N2C(=O)c3oc4ccccc4c(=O)c3C2c2cccc(O)c2)nc1C (centres undefined)	.	-3	3.0	.	5%
CCCCC/C(=N/O)c1c(C)[nH]c2ccccc12	.	-4	.	.	4%
Cc1occc1-c1nnc(SCC(=O)Nc2ccccc2)n1C	-1	-1	-0.9	.	-1%
O=C(Cc1cccs1)Nc1ccc(-c2nc3ccccc3[nH]2)cc1	-22	-4	-1.1	-15	1%
Cc1cccc(C(=O)NNS(=O)(=O)c2ccccc2[N+](=O)[O-])c1	-3	0	3.3	-17	6%
CC(=O)c1ccc(N2C(=O)[C@@H]3C(CCC(N)=O)NC4(C(=O)Nc5c4ccc(Cl)c5C)[C@@H]3C2=O)cc1 (some centres undefined)	0	-7	2.9	-32	-14%
CNC(=S)N1CCN(c2ccccc2OC)CC1	2	-4	-0.2	-19	-9%
CCOC(=O)c1sc(NC(=O)CNC(=O)Cn2cnc3sc(C)c(C)c3c2=O)nc1C	10	12	4.7	36	2%
COc1ccc(-c2noc3c2-c2nc(-c4ccc(C)cc4)sc2CC3)cc1	.	-8	-0.9	.	-4%
Cc1ccc(C(=O)c2c3ccccc3[n+]([O-])n2CCO)cc1	.	9	-0.2	.	.
COc1ccc(S(=O)(=O)Nc2ccc3c(c2)N(C(C)=O)CCC3)cc1	.	-2	1.1	.	.
CC(=C/c1ccco1)/C=N/NC(=O)c1nnn(-c2nonc2N)c1CN(C)C	11	0	-1.1	.	-3%
Cc1cc(OCc2nnc(SCC(=O)O)n2-c2ccccc2)ccc1Cl	.	-6	2.6	.	.
CCCCC(=O)OCC(=O)N1N=C(c2c[nH]c3ccccc23)C(O)C1c1ccc(OC)cc1 (centres undefined)	.	99	4.5	.	.
C=CCNC(=S)N(CC=C)C1CCS(=O)(=O)C1 (centres undefined)	0	-7	-7.4	-16	-5%
COc1ccc(C(=O)/C(C)=N/O)cc1OC	6	-2	-0.5	-43	-3%	Arbovirus inh repeat=-2
O=C(COc1ccc(Cl)cc1)NCC(=O)N/N=C/c1cccs1	20	-2	1.0	.	-4%
COc1ccc(S(=O)(=O)N(CC(=O)NC2CC2)C2CCCCC2)cc1Cl	-2	1	1.3	-29	11%
CCOC(=O)/C=C/C(=O)Nc1ccccc1-c1ccccc1NC(=O)/C=C/C(=O)OCC	-21	-9	-0.9	-34	8%
CCNC(=S)N1CCN(c2cccc(C(F)(F)F)c2)CC1	11	-1	-1.5	-6	7%
COC(=O)c1ccc(NC(=O)NCCCl)cc1	21	4	6.3	.	4%
O=C(CN1C(=O)C2CC=CCC2C1=O)Nc1ccc(S(=O)(=O)N2CCOCC2)cc1 (centres undefined)	13	-7	0.0	.	13%
CCOc1ccc(OCCSc2nc(-c3ccccc3)cc(=O)[nH]2)cc1	5	5	-2.8	.	-2%
Cc1ccc(S(=O)(=O)NC(=O)c2cc(C)n(CC(c3ccccc3)N(C)C)c2C)cc1 (centres undefined)	12	-10	2.7	.	0%
COc1cc(C(=O)NCCSc2ccc(Br)cc2)cc(OC)c1OC	1	-13	-0.4	.	-9%
Cn1cccc1C(=O)OCc1ccc(C(C)(C)C)cc1	.	1	4.4	.	.
COc1ccc(CNC(N)=O)cc1	0	-5	-3.6	-4	-8%
Cn1c2c(c(=O)n(C)c1=O)[C@@H]1c3c(ccc4ccccc34)OC[C@@H]1CO2	5	10	-0.2	-39	7%
O=C1c2ccccc2C2(c3cc(C(F)(F)F)cc(C(F)(F)F)c3)NCCN12 (centres undefined)	.	4	3.4	.	.
COc1ccc(C2(O)C(=O)Nc3ccc(C)cc32)cc1OC (centres undefined)	.	5	-1.0	.	.
CC1(C)c2ccccc2-c2nc3ccccc3cc2C1O (centres undefined)	.	1	2.9	.	-1%
COC(=O)C1=C(O)/C(=C\c2cc(C)n(-c3ccc(F)cc3)c2C)N=C1C	0	0	-3.0	.	-1%
O=C(CN1CCc2ccccc2C1)Nc1cc(S(=O)(=O)N2CCOCC2)ccc1N1CCOCC1	-4	1	-0.1	-25	6%
S=C(Nc1ccc2nc(-c3ccccn3)c(-c3ccccn3)nc2c1)N1CCCCC1	0	.	.	.	6%
CNC(=S)Nc1ccc2nc(C)c(C)nc2c1	9	-1	0.5	-32	-12%
O=c1oc2cc(OCc3c(F)c(F)c(F)c(F)c3F)ccc2cc1-c1ccccn1	6	76	0.4	-17	47%
COc1ccc(C(=O)N2CCN(S(=O)(=O)c3ccc(C)cc3)CC2)cc1S(=O)(=O)N1CCOCC1	.	4	0.8	.	14%
O=C(Nc1ccccc1-c1nnc(SCc2ccccc2)o1)c1ccccc1	-3	-2	11	-28	9%
CN(C)c1ccc(/C=N/Nc2nc3ccccc3o2)cc1	.	-3	-4.9	.	.
Cc1csc2c(N3CCN(C(=S)Nc4ccc(C(F)(F)F)cc4)CC3)ncnc12	.	-1	11	.	0%
COc1ccc(N(CC(=O)Nc2ccc(C)cc2)S(=O)(=O)c2c(C)noc2C)cc1	.	3	-2.2	.	.
Cc1ccc(C(=O)Nc2c3c(nn2C(C)(C)C)CS(=O)(=O)C3)cc1C	0	-4	2.0	-38	-3%
Cc1ccc(CN(Cc2cc3cccc(C)c3[nH]c2=O)C(=S)NCCCN(C)C)cc1	-37	2	-0.3	.	-4%
CCSc1nnc(NC(=O)c2nc(S(=O)(=O)Cc3ccc(F)cc3)ncc2Cl)s1	.	-5	85*	.	.
Cc1cc(C)c(NC(=O)CN2C(=O)CC(C)S(=O)(=O)c3ccccc32)c(C)c1 (centres undefined)	.	-1	3.5	.	.
O=C(OCC(=O)N1CCc2ccccc2C1)c1cccs1	-4	-2	-1.8	.	49%
C=COCCNC(=S)Nc1ccccc1	-1	3	1.3	.	-2%
CC(=O)NC12CC3CC(C1)CC(C(=O)N1CCN(c4ncccn4)CC1)(C3)C2	.	-9	1.2	.	.
CNC[C@H](O)c1cccc(O)c1	-1	-14	1.0	-9	-19%
O=C(/C=C/c1ccc(Br)cc1)NC(=S)Nc1ccc(S(=O)(=O)Nc2nccs2)cc1	2	1	-0.6	-3	3%
COc1ccc(F)cc1CSc1nnnn1-c1ccc(O)cc1	.	9	8.5	.	.

Three entries drawn at random from the list so far:
SMILES	Arbovirus inh	Mtb betalactam	RecA splice inh	YopH inh	Mtb growth	others
CC(=O)NC12CC3CC(C1)CC(C(=O)N1CCN(c4ncccn4)CC1)(C3)C2	.	-9	1.2	.	.
Cc1ccc(CN(Cc2cc3cccc(C)c3[nH]c2=O)C(=S)NCCCN(C)C)cc1	-37	2	-0.3	.	-4%
CNC[C@H](O)c1cccc(O)c1	-1	-14	1.0	-9	-19%

Later entries
SMILES	Arbovirus inh	Mtb betalactam	RecA splice inh	YopH inh	Mtb growth	others
COc1ccc(Cc2nnc(NC(=O)c3ccc(OC(C)=O)cc3)s2)cc1OC	.	4	-3.9	.	.
Cc1cccc(NC(=O)[C@@H](CC(C)C)NC(=O)[C@@H]2Cc3ccccc3CN2)c1	.	2	1.4	.	.
COc1cccc(C(=O)C2CCCN(CC3=Cc4cc(OC)ccc4OC3)C2)c1 (centres undefined)	3	2	9.2	.	0%
CC1Cc2ccccc2N1C(=O)Cn1cnc2c1c(=O)n(C)c(=O)n2C (centres undefined)	.	8	0.5	.	.
CN(CC1CCOCC1)C(=O)CC1C(=O)NCCN1Cc1cccc(F)c1 (centres undefined)	.	-7	-3.0	.	.
CC(C)c1ccc(NC(=O)CCN2C(=O)[C@@H]3Cc4ccccc4CN3C2=O)cc1	.	-1	0.1	.	.
COc1ccc(NC(=O)CN2C(=O)C(C)Oc3ccccc32)cc1OC (centres undefined)	.	2	6.6	.	.
CC(C)(C)C(=O)[C@H]1[C@H](c2ccccc2)[C@@]2(N=C(c3ccccc3)OC2=O)C2c3ccccc3C=NN21 (some centres undefined)	-8	8	23	-75	4%
COc1ccc2cc(C3CC(c4ccco4)=NN3C(=O)CCC(=O)O)c(Cl)nc2c1 (centres undefined)	-2	-4	0.2	-2	-5%
COc1ccc(Br)cc1CN(C)C(=O)c1cc(Cl)c2c(c1)OCCO2	.	-3	9.8	.	.
Cc1ccc(C(=O)N/C(=C\c2ccc3c(c2)OCO3)C(=O)N2CCOCC2)cc1	.	-8	-0.6	.	.
CC(C)c1ccccc1NC(=S)NCc1ccccc1F	-1	-3	1.4	-18	5%
O=S(=O)(NCCN1CCOCC1)c1cccc(C(F)(F)F)c1	.	-1	2.5	.	.
O=C(N[C@@H](Cc1c[nH]c2ccccc12)C(=O)NC1CC1)c1ccccc1Cl	4	1	1.5	-26	2%
Cc1ccc(C)c(N2CCN(C(=O)Cc3ccc(NC4=NC5CS(=O)(=O)CC5S4)cc3)CC2)c1 (centres undefined)	.	1	1.5	.	.
